Calb FLC: affects C. albicans growth with fluconazole. growth inhibition, % (no concentration beside the values). 0.57% of 300,000 active. C. albicans CaCi-2 (fluconazole-resistant clinical isolate) + fluconazole, Alamar Blue growth, 48 h;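 active = most replicates above 75%; inconclusive = exactly half above 75%; inactive = most below 75%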;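 note: all wells also contain fluconazole at 8 µg/ml as a sub-toxic cotreatment; 0% = median of DMSO wells and 100% = median of geldanamycin control wells; wells of about 8 µL received 7.5 nL stock; the first replicate is given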
T cruzi inh: blocks replication of Trypanosoma cruzi | T. cruzi beta-gal in NIH3T3, luminescence, 90 h | inhibition, % (concentration not given with the values) | 1.4% of 300,000 active;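 active = mean inhibition across valid replicates above about 55%, limit read from the data; inconclusive = mean below that limit but half or more replicates reach it; inactive = mean below it, under half of replicates reach it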;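 note: signal also drops with host cell toxicity which is not excluded here; 0% = plate median of DMSO wells and 100% = zero luminescence signal; higher percent means less beta-gal luminescence so fewer parasites; stock transfer was 50 nL into about 50 µL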
A1 inh: inhibitors of the anti-apoptotic protein A1, read as caspase activation | MEF A1-2A-BIM cells, Caspase-Glo 3/7 luminescence, 3 h; percent of clofoctol response, vehicle zero | caspase activation, % (test concentration not listed) | 0.066% of 330,000 active | AID 2462;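 active = over half of replicate activation scores above 10%, or exactly half above 10 with the replicate mean above 10; inconclusive = replicate mean below 10 yet half the replicates above 10; inactive = over half of replicates below 10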;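 note: wells of about 30 µL received 50 nL stock; many hits fall short of the cut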
UCH37 inh: blocks the human deubiquitinase UCH37. Q9Y5K5. purified proteasome/UCH37, Ub-AMC cleavage fluorescence. inhibition, % (test concentration not listed). 0.33% of 330,000 active. AID 588478;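 active = mean of two replicates above 20%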;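 note: 0% = compound-free wells with enzyme and 100% = wells lacking proteasome; stock transfer was 100 nL into about 20 µL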
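Material: Human UCH37 enzyme supplied as purified proteasome complex | Schedule: 30 min compound-proteasome preincubation then 25 min substrate reaction, room temperature | Detection: AMC fluorescence from Ub-AMC cleavage, excitation 355 nm, emission 460 nm | Benchmarks: Wells without proteasome as full block, compound-free enzyme plus substrate as uninhibited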
Beta cell apopt: beta cell apoptosis inhibition. 0.8% of 300,000 active. INS-1E cytokine-induced death, ATP luminescence, 48 h; percent of positive-control rescue, neutral wells zero. protection from apoptosis, % (test concentration not listed). AID 435005;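 active = all replicates at 75% or more, or half of them and the mean; inconclusive = half reach 75% but not the mean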;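 note: 0% = cytokine-treated negative control wells and 100% = positive control rescue; higher means more ATP so stronger rescue from cytokine killing; wells of about 40 µL received 100 nL stock; the first replicate is given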
LANA-H2B inh: blocks KSHV LANA binding to histone H2A/H2B. cell-free LANA-H2A/H2B peptide, fluorescence polarization. Q9QR71. inhibition, % (no concentration beside the values). 0.6% of 320,000 active; in the data active = inhibition mostly above about 10%, no sharp cut-off; inactive = mostly below about 6.7%;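 note: stock transfer was 7.5 nL into about 10 µL; 0% = median of vehicle wells and 100% = median of positive control wells; one replicate is shown; the record names a cut of 25% in any replicate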
Target sequence (Q9QR71 whole entry, looked up): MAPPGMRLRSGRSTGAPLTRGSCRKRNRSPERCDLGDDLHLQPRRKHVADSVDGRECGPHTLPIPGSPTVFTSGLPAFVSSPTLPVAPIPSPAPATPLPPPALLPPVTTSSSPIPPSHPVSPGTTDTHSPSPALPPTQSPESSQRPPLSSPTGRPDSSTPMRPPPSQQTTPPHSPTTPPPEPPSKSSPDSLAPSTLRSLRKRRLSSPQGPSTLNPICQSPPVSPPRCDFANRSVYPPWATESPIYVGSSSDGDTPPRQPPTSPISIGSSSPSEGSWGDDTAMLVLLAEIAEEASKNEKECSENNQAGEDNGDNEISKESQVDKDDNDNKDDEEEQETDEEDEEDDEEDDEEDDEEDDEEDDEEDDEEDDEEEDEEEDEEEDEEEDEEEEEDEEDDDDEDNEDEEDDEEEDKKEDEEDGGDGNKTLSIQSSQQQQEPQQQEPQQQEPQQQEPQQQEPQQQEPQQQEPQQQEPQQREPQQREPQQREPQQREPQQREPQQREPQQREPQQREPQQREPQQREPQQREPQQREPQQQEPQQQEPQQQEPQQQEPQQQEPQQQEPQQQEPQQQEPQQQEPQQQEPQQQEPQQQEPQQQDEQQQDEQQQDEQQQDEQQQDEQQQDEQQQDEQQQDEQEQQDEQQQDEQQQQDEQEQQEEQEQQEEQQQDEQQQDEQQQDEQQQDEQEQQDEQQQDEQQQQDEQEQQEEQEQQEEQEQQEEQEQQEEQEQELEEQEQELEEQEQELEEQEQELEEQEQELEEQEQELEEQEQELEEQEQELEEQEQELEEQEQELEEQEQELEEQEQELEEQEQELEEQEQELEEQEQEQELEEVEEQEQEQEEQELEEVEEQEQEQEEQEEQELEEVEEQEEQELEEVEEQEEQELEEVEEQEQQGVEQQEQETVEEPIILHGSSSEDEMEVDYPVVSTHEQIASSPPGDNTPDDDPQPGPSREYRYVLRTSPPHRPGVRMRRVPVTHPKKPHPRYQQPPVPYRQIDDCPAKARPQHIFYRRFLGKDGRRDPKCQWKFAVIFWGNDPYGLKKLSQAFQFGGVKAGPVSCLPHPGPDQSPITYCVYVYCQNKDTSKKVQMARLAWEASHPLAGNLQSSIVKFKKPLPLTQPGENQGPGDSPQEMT
B2AR ag: human beta-2 adrenergic receptor agonism by FAP. P07550. Am2.2-beta2AR cells, FAP receptor internalization, flow cytometry; reference of the scale not given here. response, % (no concentration beside the values). 0.43% of 340,000 active;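 active = response above a set limit, near 3 SD of response in nonfluorescent compounds, cut at about 42% in these data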;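 note: stock transfer was 100 nL into about 11 µL; a reference agonist was the positive control; negative values mostly stem from fluorescent compounds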
RanGTP-Impb inh: inhibitors of RanGTP-importin-beta interaction, primary screen, biochemical, FRET, CFP-Ran, YFP-importin-beta, homogeneous; cell-free CFP-Ran/YFP-importin-beta FRET ratio; inhibition, % (no concentration beside the values); 1.1% of 300,000 active;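 active = most replicates above 15%; inconclusive = exactly half above 15%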;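 note: 0% = DMSO wells and 100% = Ran loaded with GDP instead of GTP; wells of about 40 µL received 100 nL stock; the first replicate is given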
An asterisk follows results filed as active; ? = inconclusive; / = no result given.

Start of the listing, in advance (two entries):
Second line of a record: Calb FLC	T cruzi inh	A1 inh	UCH37 inh	Beta cell apopt	LANA-H2B inh	B2AR ag	RanGTP-Impb inh
C[C@@]12CCC=C[C@H]1[C@H](c1ccc(F)c(/C=C/c3ccccc3)c1)N(Cc1ccccc1)C2=O
 : -0.8	19.1	1.1	1.1	5.5	-3.6	-8.9	-3.8
CC(NC(=O)COC(=O)c1cc([N+](=O)[O-])ccc1N1CCOCC1)c1ccc(F)cc1 (stereo not given)
 : -0.2	0.6	1.9	7.7	3.0	-2.6	1.1	-1.4

This part in full, repeating the preview:
Second line of a record: Calb FLC	T cruzi inh	A1 inh	UCH37 inh	Beta cell apopt	LANA-H2B inh	B2AR ag	RanGTP-Impb inh
C[C@@]12CCC=C[C@H]1[C@H](c1ccc(F)c(/C=C/c3ccccc3)c1)N(Cc1ccccc1)C2=O
 : -0.8	19.1	1.1	1.1	5.5	-3.6	-8.9	-3.8
CC(NC(=O)COC(=O)c1cc([N+](=O)[O-])ccc1N1CCOCC1)c1ccc(F)cc1 (stereo not given)
 : -0.2	0.6	1.9	7.7	3.0	-2.6	1.1	-1.4
COCC1CCCCN1C(=O)c1ccc2oc(CCc3ccccc3)nc2c1 (stereo not given)
 : 9.4	1.8	1.6	2.3	/	3.7	-2.6	2.5
CC(=O)N1C=CN(C(C)=O)C(c2cn(C)c3ccccc23)C1c1cn(C)c2ccccc12 (stereo not given)
 : /	/	0.1	1.1	2.1	-5.0	-2.9	/
COc1ccc(CCNC(=O)COc2ccc([N+](=O)[O-])cc2)cc1
 : ?	-8.5	0.1	2.6	-4.3	2.4	-7.7	-1.6
CCC(C)(C)n1nnnc1CN1CCN(c2nc3ccc(C)cc3cc2C#N)CC1
 : 11.7	50.7	1.0	-7.3	0.1	5.0	5.8	13.0
COc1ccc(/C=C/C(=O)NCC2COc3ccccc3O2)cc1OC (stereo not given)
 : 11.8	15.4	0.1	-11.3	-8.2	-5.8	-7.2	1.8
COc1ccc(CN2CCNC(=O)C2CC(=O)NCc2ccc(C)s2)c(OC)c1 (stereo not given)
 : 21.8	0.1	0.4	-0.8	2.9	2.2	-1.1	-0.4
COc1ccc(-n2nnnc2SCC(=O)Nc2cccc(NC(C)=O)c2)cc1OC
 : 10.2	-7.3	-0.3	-1.3	8.1	1.3	-3.9	-3.5
Nn1c(SCc2ccccc2)nnc1-c1ccccn1
 : -9.0	10.2	0.1	1.2	1.7	-3.9	0.6	-1.6
CCNc1nc(Oc2ccc(C(=O)OCC)cc2)nc(N2CCOCC2)n1
 : 1.6	-0.7	1.0	0.6	-3.9	2.8	/	-4.6
COc1ccccc1NC(=O)N1CCC(c2nc3ccccc3o2)CC1
 : 19.6	-3.7	-1.9	0.3	-10.9	-3.7	-12.3	-4.9
Cc1[nH]c2ccccc2c1/C=N/Nc1ccc([N+](=O)[O-])cc1
 : 6.6	53.5	-0.7	/	38.9	0.0	-274.8	-25.1
Cn1c(C(=O)N[C@@H](C(=O)O)c2ccccc2)cc2cc(F)ccc21
 : -14.1	-10.7	0.4	-10.4	-0.6	-0.6	-3.2	0.4
O=C(CN1CCCCCC1)NCc1ccccc1
 : 2.5	/	1.8	0.6	4.6	0.9	4.6	0.2
Cc1ccc(C2=NN(C(=O)CCC(=O)O)C(c3cn(-c4ccccc4)nc3-c3ccc(C)cc3)C2)cc1 (stereo not given)
 : 40.7	0.2	0.8	2.3	-5.9	1.6	15.5	?
O=[N+]([O-])c1cnc2ccccc2c1
 : 3.6	-4.1	-0.2	6.0	-5.9	-0.6	8.7	0.2
O=C(Nc1ccc(N2CCCC2)c(Cl)c1)c1ccccc1[N+](=O)[O-]
 : ?	12.6	0.3	1.5	9.9	-2.3	-4.7	/
CC(C)C[C@H](NC(=O)c1nc[nH]c1C(=O)NCc1ccccc1)C(=O)OCc1ccccc1
 : 4.7	2.4	-0.3	4.1	-11.3	3.2	19.9	1.1
Cc1nnc(SCC(=O)N2CCCCCC2)n(N)c1=O
 : 6.9	/	-0.5	-2.9	4.0	-0.3	5.4	/
COc1ccc(C(C)(C)C)cc1S(=O)(=O)N1CCN(C)CC1
 : 2.1	2.1	-0.6	0.7	1.6	0.3	-5.5	-2.7
CC(O)Cn1cnc2c1c(=O)n(C)c(=O)n2C (stereo not given)
 : 5.5	-10.1	0.2	0.2	/	5.3	-2.0	-1.2
CCn1cc(C(=O)N2CCN(c3ccc(C(C)=O)cc3)CC2)c2cc(OC)c(OC)cc2c1=O
 : 1.3	11.4	-0.8	2.1	-4.3	10.0	-8.0	-1.4
Cc1sc2nc(SCC(=O)c3cccs3)n(Cc3ccco3)c(=O)c2c1C
 : -4.1	41.5	-0.9	5.7	2.0	-5.7	-0.4	3.7
COc1nc(-c2cnccn2)sc1C
 : -11.3	-8.0	0.7	-40.1	1.5	-1.3	3.0	-1.2
CCCCC(=O)OCC(=O)Nc1ccc(OC(F)F)cc1
 : 3.8	-2.1	-0.5	5.9	6.3	-4.5	-3.5	-4.5
CCC1CCCCN1C(=O)COc1ccc(S(=O)(=O)N2CCOCC2)cc1Cl (stereo not given)
 : /	/	1.8	4.5	1.3	2.5	0.7	/
CCOc1cccc(CNCc2ccncc2)c1
 : 5.0	11.4	-0.8	-0.3	/	5.8	-1.6	0.4
CN=C(Nc1ccc(Cl)cc1)c1cccc(C(F)(F)F)c1
 : 2.8	-34.2	1.0	4.6	1.0	-1.2	0.9	-2.5
Cc1ccc(C(C)C)c(Oc2cnccn2)c1
 : 11.9	-5.9	0.5	3.8	-3.1	4.5	-22.0	9.1

(further entries)
compound,Calb FLC,T cruzi inh,A1 inh,UCH37 inh,Beta cell apopt,LANA-H2B inh,B2AR ag,RanGTP-Impb inh
O=C(c1ccc([N+](=O)[O-])cc1)N1CCN(c2ncccn2)CC1,-1.2,-6.4,0.5,6.0,/,-2.7,1.7,0.3
CCC(=O)NC(c1cccc([N+](=O)[O-])c1)c1c(O)ccc2ccccc12 (stereo not given),11.9,2.5,-2.0,-1.1,-2.0,0.8,9.4,1.6
Cc1c(C(=O)OC(C)C(=O)N(C)Cc2ccccc2)oc2ccccc12 (stereo not given),/,/,0.1,1.8,1.9,2.1,3.1,/
CCCCCc1ccc(CC(=O)Nn2c(C)nc3ccccc3c2=O)cc1,-16.2,0.8,0.2,4.3,-5.4,6.2,-5.9,4.5
Cn1c(Cn2c(=O)sc3ccccc32)nnc1SCC(=O)N1CCCc2ccccc21,/,/,-0.1,2.6,5.5,2.8,-7.8,/
CCCCC(=O)NCCc1cc2c(C)ccc(C)c2[nH]c1=O,-2.4,-4.3,1.0,-1.7,/,-0.4,6.0,-1.2
COc1ccc(-c2cn3c(C)c(C(=O)Nc4cc(NC(C)=O)ccc4OC)sc3n2)cc1,?,-18.0,1.0,-244.7,/,-1.4,-0.1,0.7
COc1cccc(C(=O)COC(=O)C(C)N2C(=O)C3C4C=CC(C4)C3C2=O)c1 (stereo not given),-20.1,-25.2,-0.3,1.0,-1.7,-0.9,-5.2,3.1
CCN1CCSc2ccc(C(=O)Nc3ccc(NC(C)=O)cc3)cc21,-4.3,-0.6,0.9,-86.9,-3.5,-1.7,1.4,1.3
CCOC(=O)c1cn(Cc2ccccc2)c(C(=O)OC(C)(C)C)c1O,-0.1,-0.6,-1.0,2.0,-0.1,-1.5,12.0,-0.5
O=C(O)c1ccc2c(c1)C(=O)N(c1nccs1)C2=O,6.9,-1.2,-0.1,-0.1,-0.2,1.0,2.9,-2.0
COc1ccc(CCNC(=O)C(C)SCC(=O)Nc2ccc(F)cc2)cc1 (stereo not given),/,/,-0.4,5.0,9.9,5.1,-3.8,/
CSc1ccccc1OCc1cc(C(=O)N(C)C2CCCc3ccccc32)no1 (stereo not given),-10.9,5.1,-1.0,4.6,-5.0,-4.6,-4.8,1.0
COc1cccc(N2CN(C3CCCCC3)CNC2=S)c1,3.4,/,-0.1,3.4,-9.0,-0.5,12.1,5.8
COCCNC(=O)CN1C(=O)CC(C)(C)S(=O)(=O)c2ccccc21,-7.5,-12.5,0.3,-0.8,-4.0,1.3,6.4,2.4
O=C(NCc1ccc2[nH]c3c(c2c1)CCCC3)c1ccc(S(=O)(=O)N2CCCCC2)cc1,-4.1,8.0,0.8,2.3,6.7,-1.5,-8.7,6.2
COc1cccc(C(=O)NN2C(=O)C3C4C=CC(O4)C3C2=O)c1 (stereo not given),6.5,-20.2,0.2,-0.6,-1.1,-3.2,-1.8,4.7
CC(C)n1cc(CN2CCC(n3nccc3NC(=O)Cc3ccccc3)CC2)cn1,1.3,2.0,-1.0,2.0,-2.6,-4.1,-2.1,-0.2
CCCN(CCC)C(=O)C[n+]1cccc(/C=N/O)c1,-14.1,-4.1,0.5,/,-4.3,3.0,-11.3,0.6
O=C(NC1CC2CCCC(C1)N2Cc1cccs1)c1ccc([N+](=O)[O-])cc1 (stereo not given),1.6,3.8,-0.5,3.0,0.8,-0.6,/,-2.6
Cc1ccc(C)c(NC(=O)c2cccc(Oc3ccc([N+](=O)[O-])cc3Cl)c2)c1,25.1,55.2*,0.7,1.8,-4.7,-2.2,-3.9,0.0
O=C(c1ccc(CN2CCc3ccccc3C2)cc1)N1CCN(c2ccc(F)cc2)CC1,-3.1,45.5,0.5,4.0,-9.0,2.9,5.6,1.7
COCCN(CC(=O)NCc1ccc(F)cc1)C(=O)CCC(=O)Nc1ccccn1,-4.4,-7.4,-0.1,3.0,-4.2,2.3,0.1,0.1
Cc1nccn1C(c1ccccc1)c1ccccc1,5.1,-5.1,0.1,3.8,1.2,-1.3,-2.1,0.3

Copied from the entries so far for reference:
compound,Calb FLC,T cruzi inh,A1 inh,UCH37 inh,Beta cell apopt,LANA-H2B inh,B2AR ag,RanGTP-Impb inh
CCCN(CCC)C(=O)C[n+]1cccc(/C=N/O)c1,-14.1,-4.1,0.5,/,-4.3,3.0,-11.3,0.6
O=C(NC1CC2CCCC(C1)N2Cc1cccs1)c1ccc([N+](=O)[O-])cc1 (stereo not given),1.6,3.8,-0.5,3.0,0.8,-0.6,/,-2.6

(next part)
compound,Calb FLC,T cruzi inh,A1 inh,UCH37 inh,Beta cell apopt,LANA-H2B inh,B2AR ag,RanGTP-Impb inh
CCCCCC(=O)Nc1ccc(C2C(=O)c3ccccc3C2=O)cc1,-3.5,-9.9,-2.8,11.7,-6.2,-1.3,5.8,0.2
CC(Cc1cccs1)NC(=S)Nc1ccccc1 (stereo not given),-22.8,-1.2,0.1,4.0,-4.2,1.3,-0.8,2.5
COc1ccc(/C(C)=N/NC(=S)Nc2cc(C)ccc2C)cc1,0.4,35.1,-0.7,/,2.2,-3.3,13.5,-0.8
C=CCOC(=O)C1=C(C)NC(SCC)=C(C#N)C1c1ccc(Cl)cc1 (stereo not given),2.6,51.3,0.2,-3.5,0.1,2.7,-0.4,-3.0

Assay outcomes from PubChem.
